Assay outcomes from PubChem.
MbtI inh: inhibitors of Mycobacterium tuberculosis siderophore enzyme MbtI | P9WFX0 | purified MbtI enzyme, fluorescence intensity read-out | inhibition, %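 (about 17 µg/mL by stock and volumes)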 | actives 0.89% (n = 100,000);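 active means above 50% in both replicates, above 80% if mildly self-fluorescent; inactive means the rest, strongly fluorescent compounds included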;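 further: 0% = mean of negative and 100% = mean of positive controls; one replicate is shown; some compounds called inactive have numbers as strong as hits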
MenB inh: blocks the Mycobacterium tuberculosis MenB enzyme. P9WNP5. MenB enzyme assay, absorbance read-out; some hits fall short of the stated cut. inhibition, %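 (about 12 µg/mL by stock and volumes)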. actives 0.43% (n = 100,000). AID 540299;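 active means mean of two replicates above 30%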;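 further: 0% = no compound and 100% = wells with inactive enzyme; the first replicate is given; strong numbers were not always called active; inactives centre near -10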
Target sequence (P9WNP5 whole entry, looked up): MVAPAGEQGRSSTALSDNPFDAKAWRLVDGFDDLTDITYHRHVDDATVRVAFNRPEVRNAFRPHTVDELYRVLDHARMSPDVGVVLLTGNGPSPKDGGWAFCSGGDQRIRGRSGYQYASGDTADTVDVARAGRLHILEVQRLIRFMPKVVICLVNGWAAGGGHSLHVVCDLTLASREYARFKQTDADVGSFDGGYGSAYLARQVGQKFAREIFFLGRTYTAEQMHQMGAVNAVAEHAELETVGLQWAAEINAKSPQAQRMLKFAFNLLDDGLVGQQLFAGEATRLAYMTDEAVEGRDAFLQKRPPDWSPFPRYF
PV pol inh: inhibitors of poliovirus RNA polymerase binding and polymerization; P03300; poliovirus polymerase elongation, fluorescence polarization; stronger effect = lower value; % elongation, % (compound at 16.7 µg/mL); actives 0.66% (n = 150,000); in the data active means % elongation below about 90%; further: some results filed as inactive read as strong as hits
Target sequence (P03300 1749-2209 limits assumed): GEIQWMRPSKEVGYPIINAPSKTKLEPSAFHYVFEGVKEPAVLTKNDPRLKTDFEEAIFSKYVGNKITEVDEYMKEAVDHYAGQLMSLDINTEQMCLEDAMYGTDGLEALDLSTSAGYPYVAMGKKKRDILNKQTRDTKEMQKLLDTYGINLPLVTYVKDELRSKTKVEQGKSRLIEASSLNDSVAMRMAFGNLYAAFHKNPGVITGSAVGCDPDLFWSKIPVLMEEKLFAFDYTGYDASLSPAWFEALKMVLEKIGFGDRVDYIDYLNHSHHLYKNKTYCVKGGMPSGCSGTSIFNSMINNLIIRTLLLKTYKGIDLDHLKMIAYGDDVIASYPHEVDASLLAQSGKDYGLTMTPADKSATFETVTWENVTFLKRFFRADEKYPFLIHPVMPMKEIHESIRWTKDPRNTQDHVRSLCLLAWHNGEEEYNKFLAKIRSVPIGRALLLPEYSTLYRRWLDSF
PV pol inh intensity: also measured in PV pol inh; calls as there; % elongation; measured here: total intensity read-out; formula for this scale not given here;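 total fluorescence in place of polarization; lower means less elongation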
* = called active by the depositor; i = inactive; x = no result given.

Value order: MbtI inh, MenB inh, PV pol inh, PV pol inh intensity
CC(C)CC1(C)N=C(c2ccccc2)C(=S)N1 (stereo unspecified)
→ 5, -42, 100, 99
O=C(CCCc1nc2ccccc2c(=O)[nH]1)Nc1ccc(F)c(Cl)c1
→ 10, 6, 106, 97
CC(C)c1ccc(C(=O)CCN(C)C)cc1
→ x, -15, 98, 107
CCc1nc2ccccc2c(NC(=O)CN(CC)CC)c1C
→ -2, 17, 104, 100
CN(C)S(=O)(=O)N=C1C=CC(=NS(=O)(=O)N(C)C)C=C1
→ 10, -3, 88*, 94*
CC(=O)Nc1cccc(C(=O)Oc2cccc(C)c2)c1O
→ x, -10, 99, 97
O=C(CN1C(=O)COc2ccccc21)NCc1ccccn1
→ -1, -25, 100, 93
CCOC(=O)c1oc2ccccc2c1COC(=O)c1cccc(-n2cnnn2)c1
→ -5, -25, 105, 106
CC(N=C1SCCN1C(=O)/C=C/c1ccco1)c1ccccc1 (stereo unspecified)
→ -6, -3, 101, 102
CCCc1cc(-c2ccc(O)c(OCC)c2)c(C#N)c(N)n1
→ i, -2, 100, 100

Sorted by heavy-atom count (largest number first): part of the list above
Value order: MbtI inh, MenB inh, PV pol inh, PV pol inh intensity
O=C(CCCc1nc2ccccc2c(=O)[nH]1)Nc1ccc(F)c(Cl)c1
→ 10, 6, 106, 97
CC(=O)Nc1cccc(C(=O)Oc2cccc(C)c2)c1O
→ x, -10, 99, 97
CN(C)S(=O)(=O)N=C1C=CC(=NS(=O)(=O)N(C)C)C=C1
→ 10, -3, 88*, 94*
CC(C)CC1(C)N=C(c2ccccc2)C(=S)N1 (stereo unspecified)
→ 5, -42, 100, 99

Carrying on:
Value order: MbtI inh, MenB inh, PV pol inh, PV pol inh intensity
CCC(C)(C)NC(=O)c1cccc(S(=O)(=O)N2CCN(c3ccc(F)cc3)CC2)c1
→ 2, -8, 97, 102
Cn1ccc(C(=O)OCC(=O)Nc2ccc(S(N)(=O)=O)cc2)n1
→ -5, 0, 100, 99
COc1ccc(NC(=O)CSCc2ccc(C)cc2)cc1
→ -5, -26, 99, 103
CCn1c(SC(C)C(=O)NC(N)=O)nc2ccccc21 (stereo unspecified)
→ 11, -17, 100, 109
CCc1ccc(Nc2nc(-c3ccccc3)cc(=O)[nH]2)cc1
→ -35, -26, 102, 103
Cc1nnc(NC(=O)c2ccc3c(c2)SC2=NS(=O)(=O)CCN23)s1
→ 4, -25, 104, 101
CC(Nc1ccc(Br)cn1)c1cc(Cl)ccc1O (stereo unspecified)
→ -13, 2, 101, 103
CCOC(=O)c1cnc2ccc(OCC)cc2c1NCc1ccccc1
→ x, -21, 106, 106
CCOc1ccc(N(CC)C(=O)COc2cc(=O)n(C)c3ccccc23)cc1
→ 6, -30, 100, 104
O=C1CCN(C(=O)c2ccc(-c3nc4ccccc4s3)s2)CC1
→ 103, -12, x, x
CC(C)/C=C1\CCCCC1N(C)C(=O)NC(C)C (stereo unspecified)
→ 1, 5, 102, 101
CCN(CC)S(=O)(=O)c1cccc(-c2n[nH]c(=S)n2-c2ccccc2)c1
→ 79, -20, 100, 102
Clc1ccccc1CSc1nnnn1-c1ccccc1
→ -8, -15, 104, 101
CC1CCCC(NC(=O)CCCn2ncn3c(cc4occc43)c2=O)C1C (stereo unspecified)
→ 7, -19, 103, 104
Cc1cccc(N=Cc2c(O)n(-c3ccccc3)c(=O)c3ccccc23)c1
→ -14, -23, 104, 106
COc1ccc(S(=O)(=O)N2CCCC2C(=O)Nc2nc3c(s2)CCCC3)cc1 (stereo unspecified)
→ -6, -5, 102, 101
COC(=O)c1cc(N2CCCCC2)ccc1NCc1cc2ccc(OC)cc2[nH]c1=O
→ 11, 16, 102, 103
COc1cc(C2CC(=O)NC(SCC(=O)Nc3nccs3)=C2C#N)cc(OC)c1OC (stereo unspecified)
→ 30, -18, 102, 100
O=S(=O)(c1cc(Cl)ccc1Cl)N(Cc1ccco1)C(F)F
→ -8, 8, 102, 101
COc1ccccc1C1CCN(CCCOc2ccc(Cl)cc2)CC1
→ -3, 6, 103, 108
Cc1cc(C)c(NC(=O)/C=N/OCn2nnc3ccccc3c2=O)c(Cl)c1
→ -18, 10, 99, 104
COC(=O)c1cc(OC(=O)CCN2C(=O)C3CC=CCC3C2=O)cc(C(=O)OC)c1 (stereo unspecified)
→ -8, -17, 106, 103
Cc1ccc(-n2c(O)c(C=Nc3ncnc4nc[nH]c34)c3ccccc3c2=O)cc1C
→ -4, -18, 99, 104
CCOc1ccc(NC(=O)CC2CC3CCC2C3)cc1 (stereo unspecified)
→ -10, 3, 101, 104
COc1ccc(C2(O)CCN(C(=O)c3ccc4c(c3)OCO4)CC2)cc1
→ -3, 27, 102, 102
CC(C)(C)Sc1nc2ccccc2[nH]c1=S
→ -11, -120, 111, 116
CCOC(=O)CN1CC23C=CC(O2)C(C(=O)Nc2ccc(C(C)C)cc2)C3C1=O (stereo unspecified)
→ -6, -22, 101, 102
CCOC(=O)N1CCC(Nc2nc3ccc(Cl)cc3n3cnnc23)CC1
→ -3, 7, 104, 99
Cc1cc(C)nc(Sc2ccc3nnnn3n2)n1
→ -12, 9, 99, 100
Nc1nnc(SCC(=O)Nc2ccccc2N2CCOCC2)s1
→ 12, 0, 101, 98
c1cc(-c2nnc3n2CCC3)ccn1
→ -8, -20, 100, 100
CCOC(=O)C1=C(C(F)(F)F)Nc2ncnn2C1c1ccc(F)cc1 (stereo unspecified)
→ -4, -4, 100, 104
CCCNC(=O)c1ccccc1NC(=O)c1ccccc1NS(C)(=O)=O
→ -8, -4, 100, 103
Cn1nnc2cc(C(=O)Nc3cccnc3)ccc21
→ -3, -44, 100, 102
CCOC(=O)N1CCC(NC(=O)c2cccc3c2C(=O)N(CCOC)C3)CC1
→ -7, -5, 99, 102
CC(=O)Nc1ccc(C(=O)N/N=C/c2ccc(C)o2)cc1
→ 31, -26, 105, 107
CN1NC(=O)CC1C(=O)Nc1sc2c(c1C#N)CCCC2 (stereo unspecified)
→ 82, -9, 102, 101
CC(=O)NS(=O)(=O)c1ccc(N=Cc2ccco2)cc1
→ 1, 0, 102, 92
O=c1cc(O)n(C2CCCC2)c(=S)[nH]1
→ 15, -130, 95, 105
CC(OC(=O)c1cccc(C(F)(F)F)c1)C(N)=O (stereo unspecified)
→ -11, -18, 105, 110
COc1cc(/C=C2\Oc3ccccc3C2O)cc(Cl)c1OC (stereo unspecified)
→ -24, -39, 102, 104
COc1ccccc1C(=O)COC(=O)c1ccccc1O
→ -17, -35, 103, 97
Cn1cc(C(=O)O)c(-c2ccc3c(c2)OCCCO3)n1
→ 15, 8, 101, 105
CC(OC(=O)c1ccccc1OC(F)F)C(=O)N1CCCc2ccccc21 (stereo unspecified)
→ 24, -16, x, x
N#C/C(=C\Nc1cc(C(F)(F)F)cc(C(F)(F)F)c1)S(=O)(=O)Cc1ccc(Cl)cc1
→ 2, -8, 107, 114
FC(F)(F)Oc1ccc(NC2=NCCC2)cc1
→ -6, -15, 108, 109
O=C(Cc1cccs1)NCCc1cnc[nH]1
→ -21, -5, 103, 103
Cc1cc(C)nc(N(C#N)CC(=O)c2ccccc2)n1
→ 13, 18, 102, 101
CCc1ccc(NC(=O)CN(C)S(=O)(=O)c2ccc3nc(-c4ccccc4)[nH]c3c2)cc1
→ 62, -26, 105, 108
CC1CCN(C(=O)C2CCN(CC3CCCCC3)CC2)CC1
→ x, -16, 101, 106

(continued)
Value order: MbtI inh, MenB inh, PV pol inh, PV pol inh intensity
CSc1nc(C)nc(N/C=C(\C#N)S(=O)(=O)c2ccc(C)cc2)n1
→ -13, -8, 107, 114
Cc1ccc(C(C)C)c(OCC(O)CN(C)Cc2ccccc2)c1 (stereo unspecified)
→ -17, x, 102, 108
CC(=O)Oc1cccc(C(=O)NC2CCCCC2)c1
→ -17, -6, 103, 102
CC(=O)Nc1cc(C(=O)N2CCN(C)CC2)ccc1S(=O)(=O)c1ccc(C)cc1
→ -1, -35, 102, 109
c1coc(CNCc2cccc3ccccc23)c1
→ x, -2, 100, 100
O=C1C2C3C=CC(C3)C2C(=O)N1CCN1CCN(S(=O)(=O)c2ccc(Br)cc2)CC1 (stereo unspecified)
→ -15, 7, 99, 101
CCOC(=O)c1ccc2nc(C34CC5CC(CC(C5)C3)C4)ccc2c1
→ -2, 5, 101, 100
Nc1nc(-c2ccco2)nn1C(=O)c1ccc(Cl)cc1Cl
→ -4, 19, 102, 102
COC(=O)c1nn(-c2ccc(-c3ccccc3)cc2)cc1O
→ -115, -23, 104, 103
Cc1ccc2nc(COC(=O)CSc3ncnc4c3oc3ccccc34)cc(=O)n2c1
→ 14, -13, 106, 103
Cc1cccc(C)c1NC(=O)CNCC(=O)Nc1c(C)cccc1C
→ -9, -22, 98, 92
O=P1(N2CCCCCC2)CC=CC1
→ 8, -17, 101, 103
CN(C)S(=O)(=O)c1ccc2nnn(OCC(=O)NCCC3=CCCCC3)c2c1
→ -5, -18, 104, 105
Cc1cc(C)nc(NC(=O)COc2ccc(Br)cc2)n1
→ -11, -19, 104, 103
Cc1cc(-n2c(C)cc(C(=O)COC(=O)C3CCCC3)c2C)no1
→ 15, 2, 102, 98
COc1ccc(OC(=O)C2CCN(c3ccc(C(F)(F)F)cn3)CC2)cc1
→ -8, 13, 101, 105
CCCNC(=O)C(N)Cc1c[nH]c2ccccc12 (stereo unspecified)
→ -10, 1, 100, 102
Cc1cccc(OCCCC(=O)O)c1
→ -1, x, 101, 104
CCCc1c(C(=O)Nc2ccc3c(c2)OCCO3)cnn1-c1ccccc1
→ 6, -19, 102, 94
O=C(Oc1cc(=O)oc2c1c(=O)n1c3c(cccc23)CC1)c1ccco1
→ 15, -33, 103, 106
CNCc1ccc(Br)cc1
→ -1, -13, 105, 108
Cc1nc(N2CCCCC2)c(C#N)c2c1COC(C)(C)C2
→ -313, -13, 101, 100
CC(C)N(Cc1nc2ccccc2c(=O)[nH]1)C(=O)c1cc(C2CC2)nn1-c1ccccc1
→ -2, -17, 102, 107
O=C(c1ccccc1Cl)N1CCC(n2cccc2)CC1
→ -11, -5, 106, 110
COc1ccc(CNCc2cccs2)cc1Cn1ccnc1
→ -31, -11, 100, 103
CC1NC(=O)NC2NC(=O)NC(C)C12 (stereo unspecified)
→ -10, -49, 105, 101
COc1ccc(C)cc1S(=O)(=O)NCc1ccccc1
→ 97, -2, 101, 103
O=C(CN(Cc1ccco1)S(=O)(=O)/C=C/c1ccccc1)Nc1ccc(N2CCOCC2)cc1
→ 0, -7, 95, 99
CNC(=O)Cc1cc(=O)[nH]c(=O)[nH]1
→ -4, -26, 103, 105
N#Cc1ccc(Cl)cc1NC(=O)CSc1ccccn1
→ 9, x, 102, 98
CCc1ccccc1-n1nnc(C(=O)NCc2ccc3c(c2)OCO3)c1N
→ -3, 11, 101, 99
CCOc1ccc(/C=N/OCC(=O)Nc2cc(C)on2)cc1
→ -19, -13, 103, 97
CCN(CC)C(=O)c1cccc(C(=O)N(CC)CC)c1
→ x, -23, 107, 107
CCn1cc(/C=C(/C#N)c2ccccc2Cl)c2ccccc21
→ -7, -36, 101, 104
COC(=O)c1cccc(NS(=O)(=O)c2ccc(OC)c(Cl)c2)c1C
→ -9, -2, 101, 102
CC1(C)CSC(=NCc2ccccc2)N1C(=O)CN1C(=O)C2C3C=CC(C3)C2C1=O (stereo unspecified)
→ -5, -2, 99, 103
CN(Cc1ccc(OC(F)F)cc1)S(=O)(=O)c1ccccc1C#N
→ 9, -2, 97, 96
CSc1nsc(SCc2ccc(C(=O)Nc3ccc(Cl)cc3)cc2)n1
→ x, -18, 104, 111
COC(=O)Cn1ncc(N2C3CC(CC(C)(C)C3)C2C)c(Cl)c1=O (stereo unspecified)
→ 5, -13, 103, 98
COc1ccc2c(c1)cc1n2CCN2CCN=C12
→ -2, -3, 100, 101
CN(C)CCN(Cc1ccccc1)CC1CC2C=CC1C2 (stereo unspecified)
→ x, -5, 101, 97
O=C(O)c1cccc(NS(=O)(=O)c2ccc3c(c2)OCCCO3)c1
→ -28, -26, 98, 104
Cc1ccccc1-n1nc2c(c1NC(=O)c1ccc(S(=O)(=O)N3CCOCC3)cc1)CS(=O)C2 (stereo unspecified)
→ 7, -19, 98, 99
N#Cc1c(NC(=O)C(F)(F)F)sc2c1CCCC2
→ x, -6, 100, 102
CCn1c(CNC(=O)c2ccccc2F)nnc1SCC(=O)NC1CCCCC1C (stereo unspecified)
→ -3, -23, 103, 100
O=C(c1ccc(N2CCCC2=O)cc1)N1CCN(c2ccccc2)CC1
→ -5, -8, 101, 101
O=C(Nc1ccnn1C1CCCCC1)c1cccnc1Nc1ccccc1F
→ -2, -14, 102, 107
Cc1nn(-c2ccc(F)cc2)c2sc(C(=O)N(Cc3ccco3)Cc3cccs3)cc12
→ 11, -5, 102, 101
CN1CCN(C(=O)CN2C(=O)/C(=C/c3ccccc3)SC2=S)CC1
→ 10, -26, 97, 98
COc1ccc(-n2ncc(C(=O)Nc3ccccn3)c2C2CCN(C(=O)OC(C)(C)C)CC2)cc1
→ -8, 10, 100, 102

Later entries.
Value order: MbtI inh, MenB inh, PV pol inh, PV pol inh intensity
O=S(=O)(Cc1ccccc1Cl)NCc1cccnc1
→ -7, -24, 104, 101
C=Cc1ccc(CN2C(=O)N(c3ccccc3)C3CS(=O)(=O)CC32)cc1 (stereo unspecified)
→ -7, 5, 99, 102
COc1ccc(C)cc1NC(=O)CN(C)S(=O)(=O)c1ccc(Br)s1
→ -2, -23, 103, 108
COc1cc2c(c(OC)c1OC)-c1ccc(O)c(=O)cc1C(N)CC2 (stereo unspecified)
→ 0, -3, 99, 100
Cc1cc2ccccc2n1-c1ccc(C(=O)N2CCC(C(=O)NC3CC3)CC2)s1
→ -11, -35, 103, 101
Nc1nc(CCC(=O)OCC(=O)Nc2ccc(F)cc2)nc(Nc2ccccc2)n1
→ 3, -17, 98, 99
